# PMP22 txn = modulators of PMP22 gene transcription in S16 Schwann cells. S16 Pmp22-F2sN Schwann cells (luciferase reporters placed in the Pmp22 gene), FLuc/NLuc coincidence luminescence, 24 h. Potency, µM (doses to about 57.5 µM), for the others: top-dose activity change, negative = inhibition, usual class: inhibitors. 43,000 compounds, 2% hits. AID 1508649; active = clear falling dose curves in both reporters; inconclusive = both reporters move, but less clearly or upward; inactive = either reporter flat; the % is the NLuc reporter signal; note: % is set by controls: 0 for no effect and ±100 for the full control effect; some results filed as inactive show a strong effect at the top dose
#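 Schwann cells carrying the coincidence reporter were exposed to library compounds for 24 h at 37C, then lysed and read for FLuc and, after quenching, NLuc luminescence on a CCD imager.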
# HTT prom inh = inhibits huntingtin promoter activity | HEK293 HTT promoter firefly luciferase reporter (activity 0% = vehicle and -100% = no light), 24 h | Potency, µM (doses to about 57.5 µM), for inactives: at the top dose activity change, negative = inhibition, hits mostly inhibitors | 48,000 compounds, 0.93% hits; active = well fitted inhibition curve with a large enough effect; inconclusive = small, poorly fitted or top-dose-only effect; inactive = no such curve, though single readings can be large or run the other way; note: nearly all actives have a fitted effect of over 50% in size
#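 HEK293 Fluc reporter, 2,500 cells/well, 24 h pre-culture; cpds up to 57.5 uM final, 24 h 37 degrees C; Dual-Glo, 10 min RT; normalized vehicle = 0%, zero RLU = -100%.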
# * = called active by the depositor; ? = inconclusive; · = not tested or not shown; [ ] = another dose, or the depositor's remark. Potency is the fitted concentration of half-maximal effect.
# Results follow in this order: PMP22 txn | HTT prom inh
(1) COc1ccc(C)cc1NC(=O)Cn1cc(S(=O)(=O)Cc2ccccc2Cl)c2ccccc21
  ? | -18%
(2) COc1ccc(-c2nc(SCC(=O)Nc3cccc(C(C)=O)c3)n[nH]2)cc1
  9% | -15%
(3) O=C(c1ccc(Cl)cc1)N1CCN(CCc2ccncc2)CC1
  -25% | 2%
(4) COc1ccc(OC)c(CNC(=O)CCC(=O)N2Cc3ccccc3Oc3ncccc32)c1
  -13% | 0%
(5) COc1ccc(C(=O)Nc2ccc3c(c2)CCCN3S(=O)(=O)c2ccc(C)cc2)cc1
  -17% | ?
(6) COc1cc(OC2CCN(C)CC2)ccc1Nc1ncc2c(n1)n(C1CCCC1)c(=O)n2C
  · | -27%
(7) CCOC(=O)c1ccc(-c2ccc(/C=C(\C#N)C(=O)Nc3ccc(C)cc3)o2)cc1
  -49% | -2%
(8) Cc1ccc2c(=O)cc(C(=O)Nc3sc4c(c3C(=O)NCc3cccnc3)CCCC4)oc2c1
  ? | -8%[11.5 µM]
(9) COc1ccc(NC(=O)CSc2nc(-c3ccc(F)cc3)c3cccc(C)c3n2)cc1
  -2% | -3%
(10) Cc1c(Cl)cccc1NC(=O)c1oc2ccc(S(=O)(=O)N3CCCCCC3)cc2c1C
  -21% | -18%

# Some of these compounds in order of molar mass, ascending:
# Results follow in this order: PMP22 txn | HTT prom inh
(2) COc1ccc(-c2nc(SCC(=O)Nc3cccc(C(C)=O)c3)n[nH]2)cc1
  9% | -15%
(7) CCOC(=O)c1ccc(-c2ccc(/C=C(\C#N)C(=O)Nc3ccc(C)cc3)o2)cc1
  -49% | -2%
(5) COc1ccc(C(=O)Nc2ccc3c(c2)CCCN3S(=O)(=O)c2ccc(C)cc2)cc1
  -17% | ?
(6) COc1cc(OC2CCN(C)CC2)ccc1Nc1ncc2c(n1)n(C1CCCC1)c(=O)n2C
  · | -27%
(10) Cc1c(Cl)cccc1NC(=O)c1oc2ccc(S(=O)(=O)N3CCCCCC3)cc2c1C
  -21% | -18%
(1) COc1ccc(C)cc1NC(=O)Cn1cc(S(=O)(=O)Cc2ccccc2Cl)c2ccccc21
  ? | -18%

# The listing continues.
# Results follow in this order: PMP22 txn | HTT prom inh
(11) COc1ccc(C(=O)NCCc2csc(-c3ccc(Cl)cc3)n2)cc1
  ? | ?
(12) COc1cccc(NC(=O)CCNC(=O)Cn2cnc3ccccc3c2=O)c1
  11% | 50%[activator][11.5 µM]
(13) O=C(CSc1nc2c([nH]c3ccccc32)c(=O)n1-c1ccc(Cl)cc1)NCC1CCCO1 (stereo not given)
  -4% | -10%
(14) CCN(C(=O)c1cc2c(=O)n(CC)c3ccccc3c2s1)c1cccc(C(F)(F)F)c1
  ? | 2%
(15) CC(C)CCNC(=O)c1cnc2sc(N3CCCCCC3)nn2c1=O
  ? | -26%
(16) O=C(CN1C(=O)C2(SCC(=O)N2c2cccc(Cl)c2)c2ccccc21)NC1CCCCC1 (stereo not given)
  -10% | -14%
(17) Cc1cc(-c2ccc(C)c(S(=O)(=O)N3c4ccccc4CC3C)c2)on1 (stereo not given)
  ? | 14µM*
(18) CC(=O)Nc1cc(C(=O)NCc2ccccc2)ccc1Sc1ccc(C)cc1
  -8% | -19%
(19) O=c1oc2ccccc2cc1-c1cn2cc(Cc3ccccc3F)sc2n1
  -2% | 29%
(20) CC1CCN(S(=O)(=O)c2ccc3c(c2)oc(=O)n3CC(=O)NC(C)c2ccccc2)CC1 (stereo not given)
  ? | 14µM*
(21) Cc1ccc(-c2cc(NC(=O)C(C)Oc3ccc(C)c(C)c3)on2)cc1 (stereo not given)
  9% | 7%
(22) CC(=O)c1c(C)oc2ccc(N(C(=O)Oc3ccccc3)S(=O)(=O)c3ccc(C(C)(C)C)cc3)cc12
  13µM* | ?
(23) Cc1cn2c(=O)cc(COC(=O)c3cccc(NC(=O)COc4ccccc4Cl)c3)nc2s1
  -2% | ?

# Part of the list above, set out differently.
14. CCN(C(=O)c1cc2c(=O)n(CC)c3ccccc3c2s1)c1cccc(C(F)(F)F)c1
  PMP22 txn: ?
  HTT prom inh: 2%

13. O=C(CSc1nc2c([nH]c3ccccc32)c(=O)n1-c1ccc(Cl)cc1)NCC1CCCO1 (stereo not given)
  PMP22 txn: -4%
  HTT prom inh: -10%

15. CC(C)CCNC(=O)c1cnc2sc(N3CCCCCC3)nn2c1=O
  PMP22 txn: ?
  HTT prom inh: -26%
